# Six1-Eya2 inh = blocks human Six1 binding to Eya2; Q15475+O00167; 360,000 compounds, 0.56% hits; AlphaScreen GST-Six1/His-Eya2 binding, biochemical; stronger effect = lower value; control for the full effect not named in the record; activity change, % (concentration not given with the values); in the data active = activity change below about -65%; inconclusive = about -30% to -65%; inactive = above about -30%; also: % is scaled to controls: 0 for no effect and ±100 for the full control effect
# Target sequence (O00167 whole entry, looked up): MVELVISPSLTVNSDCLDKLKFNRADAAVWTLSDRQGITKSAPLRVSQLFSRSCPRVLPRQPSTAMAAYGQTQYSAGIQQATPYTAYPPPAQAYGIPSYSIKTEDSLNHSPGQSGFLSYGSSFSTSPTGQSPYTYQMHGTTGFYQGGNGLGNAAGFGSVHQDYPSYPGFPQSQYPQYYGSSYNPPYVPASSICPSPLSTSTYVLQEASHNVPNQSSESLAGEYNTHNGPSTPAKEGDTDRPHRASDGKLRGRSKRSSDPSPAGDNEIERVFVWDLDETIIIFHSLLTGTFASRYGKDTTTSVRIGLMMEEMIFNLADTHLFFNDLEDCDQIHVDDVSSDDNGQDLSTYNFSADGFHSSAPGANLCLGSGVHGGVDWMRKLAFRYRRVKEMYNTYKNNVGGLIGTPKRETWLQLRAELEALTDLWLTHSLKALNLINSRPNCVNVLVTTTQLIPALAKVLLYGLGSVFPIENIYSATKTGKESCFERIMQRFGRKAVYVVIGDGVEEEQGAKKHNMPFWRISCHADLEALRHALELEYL
# Target sequence (Q15475 whole entry, looked up): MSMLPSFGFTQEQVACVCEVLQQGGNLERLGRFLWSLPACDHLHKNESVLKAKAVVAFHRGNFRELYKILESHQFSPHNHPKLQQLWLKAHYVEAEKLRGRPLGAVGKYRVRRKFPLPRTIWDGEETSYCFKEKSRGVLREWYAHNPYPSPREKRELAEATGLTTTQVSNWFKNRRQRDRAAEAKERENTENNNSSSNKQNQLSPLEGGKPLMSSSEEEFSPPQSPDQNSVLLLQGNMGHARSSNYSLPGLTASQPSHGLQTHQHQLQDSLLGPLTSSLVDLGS
#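 Homogeneous AlphaScreen proximity assay pairing GST-Six1 with His-tagged Eya2 (added as 5X mix: 250 nM and 500 nM) in 50 mM Tris pH 8.0, 300 mM NaCl, 1 mM TCEP. Glutathione donor and nickel acceptor beads; 1 h, 37 °C, dark.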
# TRPML1 blocker = human mucolipin-1 channel inhibition; AID 624415; TRPML1-inducible cells, Ca2+ dye fluorescence, FDSS; stronger effect = lower value; inhibition of EC80 agonist-evoked calcium signal; activity change, negative = inhibition, % (no concentration beside the values); 390,000 compounds, 0.02% hits; in the data active means activity change below about -50%; inconclusive means about -30% to -50%; inactive means above about -30%;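 also: stimulus is agonist 54-4 at its EC80 concentration; % is scaled to controls: 0 for no effect and ±100 for the full control effect; compound concentration not given in the record; the text of the record puts the active cut at -80%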
#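 TRPML1-DL cells, Tet-induced overnight (~16 h, 37 °C) at 1,500 cells/well, were loaded with Ca8 no-wash dye plus quencher for 45-90 min at room temperature. Compounds were pinned during FDSS kinetic reading; agonist 54-4 at EC80 (4 uM final) then added.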
# CtBP-E1A inh = CtBP/E1A binding inhibition. AlphaScreen GST-E1A/His-CtBP binding, 1536-well; stronger effect = lower value; control for the full effect not named in the record. activity change, % (no concentration beside the values). 340,000 compounds, 0.49% hits; in the data active means activity change below about -65%; inconclusive means about -30% to -65%; inactive means above about -30%; also: % is scaled to controls: 0 for no effect and ±100 for the full control effect
#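 Steps: dispense buffer (Tris pH 8.0, NaCl 300 mM, TCEP 1 mM, BSA, Tween 20); add 5X protein mix (GST-E1A, His-CtBP, 125 nM each); pin 23 nL compound; 2 h at 37 °C, dark; add 5X beads (50 ug/mL); 1 h; read.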
# TRPV1 PAM = enhances activation of the human vanilloid receptor TRPV1; Q8NER1; TRPV1-expressing cells, Fluo-8 calcium influx, capsaicin EC20 potentiation; host cell line not named in the record; control for the full effect not named in the record; potentiation, % at 8.33 µM; 320,000 compounds, 0.02% hits; active means potentiation above 80%; inconclusive means 30% to 80%; inactive means below 30%; also: 0% is about no effect
#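 Fluo-8 calcium influx in TRPV1-expressing cells, kinetic read (ex 480/em 520 nm). Compound added and read 3 min for agonist activity, followed by capsaicin at EC20 final and 2 min further read for enhancement.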
# TRPML1 ag = activates the human TRPML1 channel; TRPML1-expressing cells, Ca2+ dye fluorescence, FDSS; host cell line not named in the record; reference of the full effect not given here; 410,000 compounds, 0.12% hits; Q9GZU1; activation, % (no concentration beside the values); in the data active = activation above about 50%; inconclusive = about 30% to 50%; inactive = below about 30%; also: 0% is about no effect; the text of the record puts the active cut at 80%
#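 Tet-induced TRPML1-DL cells, 1,500 per well, cultured overnight, were loaded with a no-wash Ca2+ dye for 45–90 min. Calcium fluorescence was recorded on the FDSS for 110 s after compound addition, before the EC80 agonist (4 uM 54-4) was added.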
# D2 potentiator = human D2 receptor positive allosteric modulation; P14416; DiscoveRx D2 beta-arrestin cells, luminescence, 90 min; 100% = 57 uM dopamine signal; potentiation, % (test concentration not listed); 360,000 compounds, 0.23% hits; active = potentiation of 50% or more; inconclusive = 30% to 50%; inactive = 30% or less;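 also: compound concentration not given in the record; tested on top of an EC20 dose of dopamine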
#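 PathHunter beta-arrestin assay in DiscoveRx D2 cells. Compounds were added with an EC20 of dopamine (50 nM final) for 90 min at 37 deg C. Luminescence was read 1 h after detection reagent, with 57 uM dopamine as the EC100 control.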
# The depositor's hits bear a star; ? = inconclusive; . = no result given.
SMILES,Six1-Eya2 inh,TRPML1 blocker,CtBP-E1A inh,TRPV1 PAM,TRPML1 ag,D2 potentiator
CN1CCN([C@@H]2CS(=O)(=O)N[C@H]2COCc2ccccc2)CC1,11,.,6,.,-0.7,-11
Cc1ccccc1CN1CCC(CNC(=O)C2CCCN(c3ncnc4c3nc3n4CCCCC3)C2)CC1 (centres undefined),-6,-6,-12,-11,-1.0,-24
CCCCc1ncc(CN2CCC(n3nccc3NC(=O)C(OC)c3ccccc3)CC2)[nH]1 (centres undefined),-6,-10,0,-3,0.1,-1
Cc1csc(NC(=O)CSc2nncn2C)n1,27,9,0,-1,-0.1,-5
O=[N+]([O-])c1cc(-c2nnc(Nc3ccc(O)cc3)c3ccccc23)ccc1N1CCOCC1,?,-1,?,-11,0.2,-7
CCc1cc(=O)oc2cc(OCC(=O)NCCCN3CCCC3=O)c(Cl)cc12,-8,-6,-14,2,-0.1,-8
CCOC(=O)C1=C(COC(=O)c2ccc(Cl)cc2[N+](=O)[O-])NC(=O)NC1C (centres undefined),2,-14,-3,?,1.4,0
COc1ccccc1NC(=O)OC(C)c1ccc(Cl)cc1 (centres undefined),35,18,12,?,0.1,-5
CC1=C(C#N)C(NC(=O)c2ccc(Cl)cc2)(C(F)(F)F)C(=O)N1 (centres undefined),5,8,-6,4,1.8,-12
Cc1nonc1NC(=O)CSc1nnc(N)s1,-1,24,7,8,-0.3,-3
c1ccc2[nH]c(NN=C3CCCCCC3)nc2c1,-7,11,-7,-12,0.3,-17
CCn1c(SCC(=O)N2CCOCC2)nnc1-c1cccs1,-11,9,-2,-10,1.1,-15
O=C(c1cc(-c2ccc(F)cc2)on1)N1CCCc2ccccc21,11,7,.,-22,2.4,-11
O=C(/C=C/c1ccc(Cl)cc1)N1CCOCC1,6,0,-13,-12,0.4,-3
COC(=O)COc1cccc(NS(=O)(=O)c2ccc(NC(C)=O)cc2)c1,-5,1,-17,-7,0.3,-2
CCN(CC)CCNC(=O)C(=O)NCC1OCCN1S(=O)(=O)c1ccc(Cl)cc1 (centres undefined),3,13,-2,1,-0.3,-4
CC(=O)NC(=S)Nc1cccc(S(=O)(=O)NC2=NCCC2)c1,-19,15,23,-6,0.3,-11
COc1cccc(-c2nnc(SCc3cccnc3)o2)c1,0,28,-4,-1,1.3,1
CSc1n[nH]c(NCc2ccc(C)cc2)n1,-1,6,-5,-21,0.5,-9
CCOc1ccccc1CN1CCNC(=O)C1CC(=O)N(C)Cc1cnccn1 (centres undefined),6,5,5,17,-0.2,-6
COc1ccc(C2C(C(=O)c3cccs3)=C(O)C(=O)N2c2nnc(C)s2)cc1OC (centres undefined),0,-11,0,-22,20,-21
CCOc1ccccc1-n1c(=O)c2ccccc2c2ccccc2c1=O,-4,17,3,-4,1.7,-19
CCOC(=O)c1cc2c(c(-c3ccccc3)n1)[C@@H](CCO)N(S(=O)(=O)C(C)(C)C)C2,-20,0,-2,.,-0.9,.
CCOc1ccc(S(=O)(=O)N2CCOCC2)cc1NC(=O)CCOc1ccc(C(C)(C)C)cc1,2,-5,-2,-11,0.2,-11
CCC1CCCCN1C(=O)CN1C(=O)c2ccccc2S1(=O)=O (centres undefined),5,18,-14,-1,-0.1,2

# (continued)
SMILES,Six1-Eya2 inh,TRPML1 blocker,CtBP-E1A inh,TRPV1 PAM,TRPML1 ag,D2 potentiator
CCOC(=O)c1c(-c2ccccc2)oc2ccc(OCC)cc12,51,0,80,14,1.4,1
Cc1ccc(OC(C)C(=O)Nc2ccccc2C(=O)NCc2cccnc2)cc1C (centres undefined),0,12,7,8,1.6,3
Cc1ccc([C@@H]2[C@@H]3C(=O)N(C)C(=O)[C@@H]3[C@]3(Cc4ccccc4)C(=O)N(Cc4ccccc4)CC(=O)N23)o1,7,0,8,-12,2.2,-9
CNc1nc2c(N)ncnc2n1[C@H]1O[C@@H](CO)[C@H](O)[C@@H]1O,18,-16,-7,11,1.4,-7
Cc1cccc(-c2nc(CSCC(=O)NCCCN3CCOCC3)c(C)o2)c1,1,5,-3,1,-0.2,-3
C=COC(=O)NC1CCc2cc(OC)c(OC)c(OC)c2-c2ccc(SC)c(=O)cc21 (centres undefined),-9,15,-26,.,1.8,-13
CCCCCn1c(SCCCC)nc2c1c(=O)[nH]c(=O)n2C,-1,-14,-1,-16,4.3,-2
CCCCNC(=O)Nc1ccnn1C1CCCCC1,0,-2,4,9,0.0,5
COC(=O)c1ccc(/C=N/N2CCN(Cc3ccc(C)cc3C)CC2)cc1,-5,-8,7,9,0.1,4
O=C(CN1C(=O)NC(c2ccccc2)(c2ccccc2)C1=O)NC1CCS(=O)(=O)C1 (centres undefined),0,24,0,-32,2.4,0
CSc1nnc(-c2ccc(S(=O)(=O)N3CCCC3)cc2)n1C,-2,38,0,1,-0.3,-11
COc1ccc(N=Nc2cc(C)c(O)c(CN3CCCCC3)c2)cc1,?,1,?,-4,2.3,-4
C#CCSc1nnc(-c2ccc(O)cc2)o1,-3,-4,2,2,0.2,1
Cc1ccc(C)c(NC(=O)CCC(=O)NNC(=O)C(c2ccccc2)c2ccccc2)c1,1,19,-2,27,1.3,-14
C/C=C1\NC(=O)[C@H](C)NC(=O)[C@@H](NC(=O)[C@H](Cc2ccc(O)cc2)NC(=O)[C@@H](NC(=O)/C(C)=C/C)C(C)C)[C@@H](C)OC(=O)[C@H](CCCc2ccc(O)cc2)NC(=O)[C@@H](CCC(=O)OC)NC1=O,-7,.,0,.,-0.6,2
CCc1cc(C(=O)N(C)CC(=O)Nc2c(Cl)cccc2Cl)sc1C,5,40,-1,6,2.7,4
c1ccc(Oc2cccc3cccnc23)nc1,3,21,-2,-26,0.1,-3
Oc1ccc(C2C(c3ccccc3)=NN=C(c3ccc(Cl)cc3)N2O)c(O)c1 (centres undefined),-11,1,1,6,1.3,30
COc1cccc(C2c3c(oc4ccccc4c3=O)C(=O)N2CCCN2CCOCC2)c1OC (centres undefined),1,2,0,.,0.4,-2
O=C(Nc1cccc(S(=O)(=O)NCc2ccco2)c1)c1ccc(Cl)cc1,-9,31,-13,.,3.6,-6
CCc1cc2cc(OC)ccc2nc1SCC(=O)NNC(=O)c1ccco1,-8,30,1,2,2.1,-11
C=CCN1CC(C(=O)N2CCC(Cc3ccc(Cl)cc3)(C(=O)OCC)CC2)CC1=O (centres undefined),1,19,5,-6,0.8,-3
Cc1c(NC(=O)c2ccc(NS(=O)(=O)c3cccc([N+](=O)[O-])c3)cc2)c(=O)n(-c2ccccc2)n1C,7,-14,5,.,2.2,2
CC1CCCC(NC(=O)CNC(=S)N(Cc2ccccc2)Cc2cccs2)C1C (centres undefined),0,4,-3,1,-0.9,-9
N#Cc1ccccc1S(=O)(=O)N1CCN(C(=O)Cc2coc3cc(O)ccc23)CC1,-8,-29,-9,-5,0.2,-10

# No new results follow: an excerpt of the list.
SMILES,Six1-Eya2 inh,TRPML1 blocker,CtBP-E1A inh,TRPV1 PAM,TRPML1 ag,D2 potentiator
COc1ccc(N=Nc2cc(C)c(O)c(CN3CCCCC3)c2)cc1,?,1,?,-4,2.3,-4
C#CCSc1nnc(-c2ccc(O)cc2)o1,-3,-4,2,2,0.2,1
Cc1ccc(C)c(NC(=O)CCC(=O)NNC(=O)C(c2ccccc2)c2ccccc2)c1,1,19,-2,27,1.3,-14
C/C=C1\NC(=O)[C@H](C)NC(=O)[C@@H](NC(=O)[C@H](Cc2ccc(O)cc2)NC(=O)[C@@H](NC(=O)/C(C)=C/C)C(C)C)[C@@H](C)OC(=O)[C@H](CCCc2ccc(O)cc2)NC(=O)[C@@H](CCC(=O)OC)NC1=O,-7,.,0,.,-0.6,2
CCc1cc(C(=O)N(C)CC(=O)Nc2c(Cl)cccc2Cl)sc1C,5,40,-1,6,2.7,4
c1ccc(Oc2cccc3cccnc23)nc1,3,21,-2,-26,0.1,-3
Oc1ccc(C2C(c3ccccc3)=NN=C(c3ccc(Cl)cc3)N2O)c(O)c1 (centres undefined),-11,1,1,6,1.3,30
COc1cccc(C2c3c(oc4ccccc4c3=O)C(=O)N2CCCN2CCOCC2)c1OC (centres undefined),1,2,0,.,0.4,-2
O=C(Nc1cccc(S(=O)(=O)NCc2ccco2)c1)c1ccc(Cl)cc1,-9,31,-13,.,3.6,-6
CCc1cc2cc(OC)ccc2nc1SCC(=O)NNC(=O)c1ccco1,-8,30,1,2,2.1,-11
C=CCN1CC(C(=O)N2CCC(Cc3ccc(Cl)cc3)(C(=O)OCC)CC2)CC1=O (centres undefined),1,19,5,-6,0.8,-3
Cc1c(NC(=O)c2ccc(NS(=O)(=O)c3cccc([N+](=O)[O-])c3)cc2)c(=O)n(-c2ccccc2)n1C,7,-14,5,.,2.2,2
CC1CCCC(NC(=O)CNC(=S)N(Cc2ccccc2)Cc2cccs2)C1C (centres undefined),0,4,-3,1,-0.9,-9
N#Cc1ccccc1S(=O)(=O)N1CCN(C(=O)Cc2coc3cc(O)ccc23)CC1,-8,-29,-9,-5,0.2,-10

# Additional compounds:
SMILES,Six1-Eya2 inh,TRPML1 blocker,CtBP-E1A inh,TRPV1 PAM,TRPML1 ag,D2 potentiator
CC(=O)Cc1nsc(Nc2ccc(Cl)cc2)n1,1,6,-2,-3,-1.0,-4
CCOc1ccccc1C(=O)Nc1nnc(SCC(=O)Nc2cc(C)on2)s1,0,16,-8,7,-1.1,-10
Cc1ccc(NC(=O)C(C)OC(=O)Cn2cnc3ccccc3c2=O)cc1 (centres undefined),-1,-5,-1,-5,-1.0,17
CC(=O)NN1C(=O)c2ccccc2NC1c1cccc([N+](=O)[O-])c1 (centres undefined),4,-3,0,7,-1.2,-8
CC(C)c1nc2oc3c(=O)[nH]cnc3c2c2c1CCC2,?,18,?,.,0.6,-7
O=C(CCn1c(=S)[nH]c2ccccc2c1=O)NCCc1ccc(Cl)cc1,-2,-17,4,7,-0.5,14
CC(=O)C1=C(C)Nc2cc(C(F)(F)F)ccc2S1,7,-12,-9,4,0.8,11
CC(C)NC(=O)Nc1cccc2c1O[C@@H](CN(C)S(=O)(=O)c1ccc(F)cc1)[C@@H](C)CN([C@H](C)CO)C2=O,2,-7,2,.,-0.1,-11
COC(=O)CN(C)C1CC(=O)N(c2ccc(Cl)cc2)C1=O (centres undefined),-1,13,12,11,0.5,-4
Cc1ccc(C(=O)N(Cc2nc(-c3ccc(C)cc3)no2)C(C)C)cc1,2,29,6,8,3.0,-2
O=C1[C@@H]2Cc3c([nH]c4ccccc34)C(c3cccc([N+](=O)[O-])c3)N2C(=O)CN1CCCO (some centres undefined),1,.,1,23,.,-18
CCCCCNC(=O)CCn1c(=O)oc2ccccc21,5,-4,7,22,0.4,-15

# Screening data (PubChem BioAssay)
